Source: PubChem (National Center for Advancing Translational Sciences (NCATS))
D2 agonist: activates the human D2 dopamine receptor | P14416 | DiscoveRx PathHunter D2 beta-arrestin, luminescence, 90 min; 100% = 57 uM dopamine signal | activation, % (concentration not given with the values) | actives 0.084% (n = 360,000); in the data active = activation above about 40%; inconclusive = about 15% to 40%; inactive = below about 15%; further: compound concentration not given in the record; the text of the record calls up to 30% inactive
Target sequence (P14416 whole entry, looked up): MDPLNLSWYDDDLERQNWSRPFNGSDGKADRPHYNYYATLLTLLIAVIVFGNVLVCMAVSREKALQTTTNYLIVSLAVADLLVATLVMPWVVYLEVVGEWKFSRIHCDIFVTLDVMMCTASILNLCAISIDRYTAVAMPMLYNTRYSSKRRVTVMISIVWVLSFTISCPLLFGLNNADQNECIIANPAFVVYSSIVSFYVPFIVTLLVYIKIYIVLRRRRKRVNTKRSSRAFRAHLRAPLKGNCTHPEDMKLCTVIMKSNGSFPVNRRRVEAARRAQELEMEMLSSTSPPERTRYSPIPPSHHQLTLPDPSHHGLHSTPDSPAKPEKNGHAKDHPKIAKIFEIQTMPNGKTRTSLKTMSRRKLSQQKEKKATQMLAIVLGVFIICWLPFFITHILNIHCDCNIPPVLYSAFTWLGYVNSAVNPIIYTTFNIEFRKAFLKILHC
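Agonist mode: compounds alone added to overnight-plated D2 PathHunter cells for 90 min at 37 C, with 57 uM final dopamine (EC100) defining full response. Beta-arrestin recruitment detected by chemiluminescent reagent, read after 1 h at ambient temperature.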
D2 potentiator: positive allosteric modulators of human D2 dopamine receptor; potentiation, % (test concentration not listed); actives 0.23% (n = 360,000); DiscoveRx D2 beta-arrestin cells, luminescence, 90 min; 100% = 57 uM dopamine signal; AID 624464; active = potentiation of 50% or more; inconclusive = 30% to 50%; inactive = 30% or less;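 further: compound concentration not given in the record; tested on top of an EC20 dose of dopamine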
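D2 cells co-treated with compound plus 50 nM dopamine (EC20) for 90 min at 37 deg C to detect potentiation. Beta-arrestin recruitment was read as enzyme-fragment luminescence after 1 h at ambient temperature. Full response was set by 57 uM dopamine.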
TRPML1 ag: activates the human TRPML1 channel. TRPML1-expressing cells, Ca2+ dye fluorescence, FDSS; host cell line not named in the record; reference of the full effect not given here. activation, % (no concentration beside the values). actives 0.12% (n = 410,000). AID 624414; in the data active = activation above about 50%; inconclusive = about 30% to 50%; inactive = below about 30%; further: 0% is about no effect; the text of the record puts the active cut at 80%
Target sequence (Q9GZU1 whole entry, looked up): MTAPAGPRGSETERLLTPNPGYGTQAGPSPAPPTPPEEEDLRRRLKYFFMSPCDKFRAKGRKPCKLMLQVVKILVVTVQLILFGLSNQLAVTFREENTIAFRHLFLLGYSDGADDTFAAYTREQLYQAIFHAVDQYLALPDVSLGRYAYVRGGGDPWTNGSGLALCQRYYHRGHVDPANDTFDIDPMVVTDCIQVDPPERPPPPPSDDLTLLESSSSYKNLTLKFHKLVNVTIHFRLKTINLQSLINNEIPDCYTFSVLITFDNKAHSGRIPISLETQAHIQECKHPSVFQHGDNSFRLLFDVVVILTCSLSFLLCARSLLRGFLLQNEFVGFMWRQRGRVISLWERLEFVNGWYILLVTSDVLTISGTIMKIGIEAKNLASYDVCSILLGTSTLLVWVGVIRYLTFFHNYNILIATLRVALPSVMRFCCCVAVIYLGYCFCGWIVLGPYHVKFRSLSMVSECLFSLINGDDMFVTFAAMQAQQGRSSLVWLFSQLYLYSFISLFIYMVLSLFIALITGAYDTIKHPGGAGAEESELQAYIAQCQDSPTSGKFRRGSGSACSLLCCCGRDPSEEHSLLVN
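TRPML1-DL cells, Tet-induced overnight (~16 h, 37 degrees C), loaded 45-90 min at room temperature with Ca8 no-wash calcium dye plus quencher. FDSS fluorescence: 10 s baseline, compound pin-transfer, 110 s agonist read, then EC80 54-4 (4uM final) and 110 s antagonist read.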
Six1-Eya2 blk: inhibitors of human Six1/Eya2 interaction; AlphaScreen GST-Six1/His-Eya2 binding, biochemical; stronger effect = lower value; control for the full effect not named in the record; activity change, % (concentration not given with the values); actives 0.56% (n = 360,000); in the data active = activity change below about -65%; inconclusive = about -30% to -65%; inactive = above about -30%; further: on the % scale 0 is the no-effect control and ±100 the full control effect
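Six1/Eya2 binding was read as AlphaScreen signal after compounds were pinned into GST-Six1 plus His-tagged Eya2 (5X stock 250/500 nM) in pH 8.0 Tris/NaCl/TCEP buffer, beads added, then incubated 1 h, 37 C, dark.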
CtBP-E1A blk: inhibitors of CtBP/E1A interaction; AlphaScreen GST-E1A/His-CtBP binding, 1536-well; stronger effect = lower value; control for the full effect not named in the record; activity change, % (no concentration beside the values); actives 0.49% (n = 340,000); AID 651724; in the data active means activity change below about -65%; inconclusive means about -30% to -65%; inactive means above about -30%; further: on the % scale 0 is the no-effect control and ±100 the full control effect; compound concentration not given in the record
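Homogeneous bead-based format: GST-tagged E1A captured on glutathione donor beads, His-tagged CtBP on nickel acceptor beads; compounds precede bead addition by 2 h at 37 °C.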
PINK1 expr mod: PINK1 expression modulation. PINK1 immunofluorescence, high-content cytometry, 24 h. Potency, µM (highest dose often 76.6 µM), inactives show at the highest dose activation (PINK1 increase), usual class: activators. actives 0.2% (n = 410,000); active = well fitted activation curve with a large enough effect; inconclusive = small, poorly fitted or top-dose-only effect; inactive = flat fitted curve, though single readings scatter; cell line not stated here;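 further: potency means the concentration at half of the fitted maximal effect; % of control where 0% means no effect; nearly all actives have a fitted effect of over 65% in size; a mitochondrial uncoupler was the plate control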
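Measures PINK1 amount and localization on or inside mitochondria by immunofluorescence. Stable cells get compounds at 5 concentrations for 24 hours before fixation and staining; CCCP controls included.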
Numbers without * were called inactive; ? = inconclusive; . = no result given; & = joins results of further samples; [ ] = another dose, or the depositor's remark.

Second line of a record – D2 agonist, D2 potentiator, TRPML1 ag, Six1-Eya2 blk, CtBP-E1A blk, PINK1 expr mod
> O=C1NC[C@H](Cc2ccc(O)cc2)N(CCc2cccc3ccccc23)C1=O
    0.0, -4, -0.7, -4, -7, 19%
> O=C(CN(CC1CCCO1)C(=O)CNS(=O)(=O)c1ccc(Cl)cc1)NCCc1ccccc1 (configuration not stated)
    -0.4, -3, 0.0, -4, -4, -3.1%[38.3 µM]
> Cc1ccc(CCNC(=O)CN2C(=O)COc3ccc(S(=O)(=O)N4CCC(C)CC4)cc32)cc1
    3.6, -4, 1.4&1.6, -3, -7, -0.7%&1.1%
> Cc1ccc(NC(=O)NCc2c(C)nn(C)c2C)cc1Cl
    -2.3, -18, -1.4, -6, -9, 2.2%
> CCC(OC(=O)C(CC(C)C)NC(=O)c1ccccc1)C(=O)Nc1nnc(C)s1 (configuration not stated)
    7.9, -2, 0.6, 26, 27, 0.3%
> CCCCOc1ccc(C(=O)OCC(=O)N2CCCCCC2)cc1
    -1.1, -22, 0.1, 1, 10, 0.6%
> CCCCCn1c(C(C)NC(=O)CCC)nc2ccccc21 (configuration not stated)
    -3.1, -9, 0.0, -1, 6, -0.8%
> O=C(OCCc1ccccn1)c1cccc([N+](=O)[O-])c1
    -1.4, -5, 0.0, 1, 7, 0.3%
> Cc1ccc(S(=O)(=O)NCCC(=O)Nc2ccc(C)cc2C(=O)c2ccccc2)cc1
    -5.6, -1, 1.7, -10, 1, -2.5%
> NC(=S)Cc1ccccc1Cl
    -7.2, -6, 4.9, -1, 6, -1.4%
> COC(=O)[C@H](CCSC)NC(=O)N1CCN(c2cccc(C(F)(F)F)c2)CC1
    -2.3, -17, -0.6, -3, -6, -1.0%[38.3 µM]
> CC1(C)N=C(SCC(=O)Nc2ccc(Cl)cc2)C(c2ccccc2)=N1
    -1.9, 0, 0.9, 0, 2, 0.4%
> CCOC(=O)Cc1csc(Nc2c(C)n(C)n(-c3ccccc3)c2=O)n1
    -2.6, -18, -0.4, 0, 6, -1.0%[38.3 µM]
> O=C(CN1CCOCC1)N/N=C/c1ccc(-c2cccc(Cl)c2Cl)o1
    -1.1, -5, 2.5, -6, ?, 1.1%
> O=C(Cc1ccc(Br)cc1)Nc1ccc(S(=O)(=O)NCC2CCCO2)cc1 (configuration not stated)
    -5.6, -4, 1.4, 4, 3, 1.3%
> CC(=O)c1ccc(OCc2cc(C(=O)NC(C)Cc3ccccn3)no2)cc1 (configuration not stated)
    -1.2, -5, -0.2, 0, 1, 1.5%
> CCCC1NC(=O)c2cc3ccccc3cc2-n2c1nc1ccc(F)cc1c2=O (configuration not stated)
    -0.8, ., ., -2, -3, 1.3%
> CCN1C(=O)/C(=C\N(C(C)=O)c2ccccc2)OC1=S
    -4.1, -13, 0.8, 2, 0, 0.4%[38.3 µM]
> COc1ccc(NC(=O)C2CC(=O)N(Cc3ccc(C)cc3)C2)cc1S(=O)(=O)N1CCCCC1 (configuration not stated)
    -2.8, -34, -0.1, 14, 22, 1.5%
> CN(CC(=O)Nc1ccccc1Cl)C(=O)c1cccc(-n2cccc2)c1
    -5.1, -9, -0.7, -10, -2, -1.0%
> O=[N+]([O-])c1ccc(OS(=O)(=O)Cc2ccccc2)cc1
    2.1, 1, 0.5, 4, -6, 2.0%
> Cc1ccc(-c2cc(C(=O)N/N=C/c3c[nH]c4ccccc34)n[nH]2)o1
    -8.3, -19, 0.8, -17, ., 1.3%
> Cc1c(N=C/C=C/c2ccccc2)c(=O)n(-c2ccccc2)n1C
    -1.1, -5, 0.4, 3, 7, 4.0%[38.3 µM]
> CSc1c(CC(=O)Nc2ccccc2)n(Cc2ccccc2)c2ccccc12
    -0.6, 2, 0.7, -11, 6, 11%
> O=C1/C(=C/c2ccc(N3CCCC3)cc2)NC(=S)N1C1CC1
    -0.9, -16, 50*, -22, 8, ?
> COc1cc(OC)cc(C(=O)NNC(=O)c2ccc3c(c2)OCCO3)c1
    2.3, 16, -0.4, 3, 0, 1.5%
> CCOc1ccc(OCC(=O)N2CCN(S(=O)(=O)c3ccccc3)CC2)cc1
    -1.0, 1, -0.6, -1, 2, -0.1%
> COC(=O)N1N=C(c2ccccc2)CC1(O)C(F)(F)F (configuration not stated)
    0.5, 13, -0.2, 2, -2, .
> CN1CCN(C2Cc3ccc(F)cc3Sc3cc(F)c(Cl)cc32)CC1 (configuration not stated)
    -6.0, -13, 2.0, -12, -6, -1.7%
> C=CCC1(CC=C)CCCN1C(=O)Cn1nnnc1CN(C)C(C)C
    -3.7, -6, 0.2, 6, -2, 1.5%
> Cc1oc2cc3oc(=O)c(CCC(=O)N(C)CC(=O)O)c(C)c3cc2c1C
    -3.6, -2, -0.5, -11, -8, -1.3%
> O=C(CCC(=O)N1CCCCC1)Nc1nnc(C2CCCCC2)s1
    1.1, -4, 0.2, 2, 8, -0.1%
> Cc1cccc(CSc2ncnc3ccccc23)c1
    0.0, -3, 4.5, 36, 30, 0.7%
> CCOCCCNC(=O)C(c1ccc(C)cc1)N(Cc1cccs1)C(=O)CNC(C)=O (configuration not stated)
    -2.2, 11, 0.5, 12, -16, 4.0%
> COC(=O)c1ccccc1Oc1ccc(NC(=O)C(C)(C)CCl)cc1
    4.9, 8, 0.4, -2, -1, 2.4%
> CCOc1ccc(S(=O)(=O)N2CCN(c3ccccc3OC)CC2)c2cccnc12
    -0.8, -1, -0.2, -15, -2, -1.3%
> COC(=O)c1ccc(-c2ccc(Cl)cc2)nc1C
    1.3, -12, 0.9, 20, 26, 6.5%
> COc1cc(C(=O)Oc2ccc3c(c2)OCC3=O)cc(OC)c1OC
    -5.4, -22, -1.0, -21, -9, -0.5%
> C1CCc2c(nc3nnnn3c2NC2CCCC2)C1
    -3.1, -22, 0.0, 1, 7, -1.4%
> CCCCN(CCCC)C(=O)CSc1nnc2n(C)c(=O)c3c4c(sc3n12)CCCC4
    -2.3, -9, 0.0, 1, 5, -0.5%
> O=C1Nc2ccccc2N(C(=O)c2ccc(-c3ccccc3)cc2)C1c1nc2ccccc2[nH]1 (configuration not stated)
    ., ., -0.5, -7, -20, -0.7%
> Cc1cccc(C)c1NC(=O)CSc1ccc([N+](=O)[O-])cn1
    2.6, 4, 0.6, 2, 2, 0.3%
> CC(C)(C)OC(=O)N1CCCN(C(=O)c2ccc(Cl)cc2)CC1
    4.8, -3, 0.2, 6, 5, 2.0%
> CCN(Cc1ccncc1)Cc1cn[nH]c1-c1ccc(OC)cc1F
    2.5, -7, 1.5, -4, 3, -2.0%
> CC(C)NC(=O)Cn1c(SCC(=O)N2CCCCCC2)nc2ccccc21
    -5.0, -1, 2.2, 4, 0, -2.4%[38.3 µM]
> O=S(=O)(NCCC1=CCCCC1)c1c(Cl)cccc1Cl
    3.5, 11, 2.0, 28, -1, 4.3%
> CC(=O)Nc1ccc(S(=O)(=O)NCc2nnnn2-c2ccc(F)cc2)cc1
    2.7, 13, -0.3, 6, -2, 6.7%
> CCC(Sc1nc2ccccc2s1)C(=O)Nc1nnc(C)s1 (configuration not stated)
    -4.3, -8, 1.6, 0, -9, 0.0%[38.3 µM]
> CC(=O)c1cccc(NC(=O)N(c2ccccc2)c2ccccc2)c1
    2.8, -11, 0.8, 3, 4, -1.4%
> COc1cccc(NC(=S)N2CCN(C/C=C/c3ccccc3)CC2)c1
    -0.1, -10, 0.2, -13, 5, -0.3%[38.3 µM]
> Cc1ccc(NC(=O)NC2C(NC(=O)Nc3ccc(C)cc3)N(C)C(=O)N2C)cc1 (configuration not stated)
    -1.4, -9, 0.0, 1, -1, 12%[38.3 µM]
> C=C1CCN([C@@H](Cc2ccccc2)C(=O)N2CCOCC2)S(=O)(=O)c2ccccc21
    -0.5, -9, -0.5, -5, -5, 2.3%
> COc1ccc(C2=[N+]([O-])C(C)(C)N(O)C2C)cc1 (configuration not stated)
    -3.7, 7, -0.6, 0, -5, 1.0%
> c1ccc(-n2cnnc2SCc2cn3ccccc3n2)cc1
    -0.6, -4, 1.0, 0, 3, 10%[38.3 µM]
> COc1ccc([C@@H]2CC=C(C(=O)O)[C@H](c3cccc(Cl)c3)N2S(=O)(=O)c2ccccc2C)cc1
    -2.2, -13, -0.6, -6, ., 0.0%
> CCCNC(=S)NCCN1CCCCC1
    -3.5, -10, 0.7, 5, 7, -2.5%
> CCCCCCN1C2=NCCCN2c2ccccc21
    -0.5, -13, 0.5, 7, 1, 1.1%
> CC(=O)Nc1ccc(S(=O)(=O)NCCC(=O)OC(C)C(=O)NC2(C#N)CCCCC2)cc1 (configuration not stated)
    -0.7, -4, -0.5, 13, ., 1.8%
> O=C(O)c1ccccc1C=NNc1ccc([N+](=O)[O-])cn1
    -1.9, -2, -0.4, -2, -1, -1.2%
> COc1ccccc1NC(=O)N1CCCC1C(=O)Nc1ccc2c(c1)OCO2 (configuration not stated)
    -1.2, -12, -0.1, 6, -3, -1.5%

3 compounds already listed, ordered by the value under D2 potentiator, ascending.
compound,D2 agonist,D2 potentiator,Six1-Eya2 blk,CtBP-E1A blk,PINK1 expr mod
COc1cccc(NC(=S)N2CCN(C/C=C/c3ccccc3)CC2)c1,-0.1,-10,-13,5,-0.3%[38.3 µM]
COc1ccc(C2=[N+]([O-])C(C)(C)N(O)C2C)cc1 (configuration not stated),-3.7,7,0,-5,1.0%
O=S(=O)(NCCC1=CCCCC1)c1c(Cl)cccc1Cl,3.5,11,28,-1,4.3%

Record cards, from the list above. Screens in order: D2 agonist | D2 potentiator | TRPML1 ag | Six1-Eya2 blk | CtBP-E1A blk | PINK1 expr mod
Profile of `Cc1ccc(NC(=O)NC2C(NC(=O)Nc3ccc(C)cc3)N(C)C(=O)N2C)cc1` (configuration not stated) = -1.4 | -9 | 0.0 | 1 | -1 | 12%[38.3 µM]
Profile of `COc1ccccc1NC(=O)N1CCCC1C(=O)Nc1ccc2c(c1)OCO2` (configuration not stated) = -1.2 | -12 | -0.1 | 6 | -3 | -1.5%
Profile of `C=C1CCN([C@@H](Cc2ccccc2)C(=O)N2CCOCC2)S(=O)(=O)c2ccccc21` = -0.5 | -9 | -0.5 | -5 | -5 | 2.3%
Profile of `CC(=O)Nc1ccc(S(=O)(=O)NCCC(=O)OC(C)C(=O)NC2(C#N)CCCCC2)cc1` (configuration not stated) = -0.7 | -4 | -0.5 | 13 | . | 1.8%

The listing continues:
Second line of a record – D2 agonist, D2 potentiator, TRPML1 ag, Six1-Eya2 blk, CtBP-E1A blk, PINK1 expr mod
> CCOC(=O)CSc1nnc(CNC(=O)c2cccs2)n1-c1cc(C)ccc1C
    -1.8, 2, 0.1, -1, 4, 11%[38.3 µM]
> O=C(COC(=O)c1ccc(O)cc1)Nc1ccccc1
    -5.2, 7, 0.9, -4, 7, -0.9%
> COc1ccc(Br)c(Cn2c(C)c(C(=O)NCc3cccc([N+](=O)[O-])c3)sc2=O)c1
    4.5, -7, 0.4, -12, -6, 2.7%
> CC[C@]12c3[nH]c4cc(CCC(=O)N(C)C)ccc4c3CCN1C(=O)[C@@H](CC(=O)NCc1ccc(OC)c(OC)c1)C[C@@H]2C(=O)N1CCN(C(=O)c2ccco2)CC1
    -4.9, -6, -0.3, 4, -5, -0.3%
> O=C(O)c1sc2cc(C(F)(F)F)cnc2c1-c1cccs1
    1.2, -4, 1.5, -7, ., -0.3%
> O=C(COC(=O)COc1ccccc1)Nc1cccnc1Cl
    -3.6, 0, 2.4, 2, -1, -0.1%
> NC(=S)N/N=C/c1cn(-c2ccccc2)nc1-c1cccnc1
    -0.5, -1, ., -16, -21, 5.4%
